GIV Gai3 FP: inhibitors of GIV peptide binding to Galpha-i3, primary screen, biochemical, fluorescence polarization, FITC-GIV GBA peptide, rat Galphai3; 90 min; stronger effect = lower value; scaled: aluminum fluoride 0%, vehicle 100%; percent of control (FP), % (no concentration beside the values); 210,000 tested, 0.42% active; AID 1224905, 2016;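 active = replicate mean at 85% of control or lower, very high polarization wells dropped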;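 also: wells of about 15 µL received 100 nL stock; the first replicate is given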
Target sequence (P08753 whole entry, looked up): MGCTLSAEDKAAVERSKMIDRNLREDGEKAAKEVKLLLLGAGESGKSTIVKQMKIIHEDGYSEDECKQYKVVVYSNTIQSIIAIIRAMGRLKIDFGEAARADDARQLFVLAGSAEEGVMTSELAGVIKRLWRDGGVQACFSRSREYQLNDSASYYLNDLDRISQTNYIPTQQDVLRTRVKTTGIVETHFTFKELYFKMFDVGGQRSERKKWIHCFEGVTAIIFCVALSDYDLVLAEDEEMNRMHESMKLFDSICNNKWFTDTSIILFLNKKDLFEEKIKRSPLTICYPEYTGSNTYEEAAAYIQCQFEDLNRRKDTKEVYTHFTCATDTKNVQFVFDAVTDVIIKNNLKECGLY
HCMV NEC inh: inhibitors of HCMV UL50-UL53 interaction, biochemical, HTRF | HCMV UL50-UL53 nuclear egress complex (human cytomegalovirus) | normalized percent inhibition | inhibition, % (no concentration beside the values) | 190,000 tested, 0.15% active;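 active = both replicates at 50% or more, plus weaker picks with an unusually low signal ratio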;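 also: stock transfer was 100 nL into about 20 µL; 0% = negative control wells and 100% = wells with untagged competitor protein; inactives centre near -12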
Sa growth inh: S. aureus growth inhibition at 42 and 30 °C, primary screen, LtaS inhibitor project, RN4220, two temperatures. OD600, 20 h, 42 °C; stronger effect = lower value. relative growth, % (concentration not given with the values). 170,000 tested, 0.53% active. AID 720641, 2013;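 active = growth at 42 °C up to 50% and 20 or more points under that at 30 °C, or under 10% at both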;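 also: 300 nL library stock went into each well; scaled to the means of positive and negative controls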
Sa growth inh second temp: further read-out of Sa growth inh, marked with its call; relative growth, %; measured here: growth at 30 °C;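 optical density after 20 h as mean of two plates; 100% = untreated growth and lower means inhibition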
Active calls of the source: *; x = not tested or not shown.

SMILES	GIV Gai3 FP	HCMV NEC inh	Sa growth inh	Sa growth inh second temp
CCOC(=O)/C(=N\Nc1cccc(C(F)(F)F)c1)N(C)C1CCS(=O)(=O)C1 (stereo unspecified)	x	-38	96	94
CN(Cc1ccccc1)C(=O)c1ccco1	106	3	100	95
COc1ccc(NC(=O)COCc2cc(-c3cccs3)on2)cc1	107	x	86	99
O=C(c1ccccc1)N1CCN(C(=O)c2ccccc2)CC1	x	-6	103	85
O=C(OCCCn1c(=O)[nH]c2ccccc21)c1ccc2c(c1)S(=O)(=O)c1ccccc1C2=O	x	-30	83	95
CC(C)C(=O)NCC(c1ccc2c(c1)OCO2)N1CCN(c2ccccc2F)CC1 (stereo unspecified)	98	x	85	98
CCOC(=O)c1c(N)n(-c2cccc(S(=O)(=O)N(CC)CC)c2)c2nc3ccccc3nc12	x	-14	87	99
O=S(=O)(NCC(c1ccccc1)N1CCN(Cc2ccccc2)CC1)c1ccccc1 (stereo unspecified)	100	-2	116	89
C(#Cc1ccccc1)CN1CCN(c2ccccn2)CC1	x	7	100	94
COc1ccc(C2CC(=O)c3cnc4c(-c5ccccc5)c(C)nn4c3C2)cc1OC (stereo unspecified)	106	-22	98	88
COc1ccccc1OCC(=O)Nc1nc(-c2cccs2)c(NC(=O)c2ccccc2)s1	98	-3	94	80
CN(C)c1nc(SCCOC(=O)Nc2ccccc2)nc(N(C)C)n1	100	-9	x	x
CCOc1ccc(C(=O)Nc2c(C)ccc3nsnc23)cc1Br	108	x	83	85
CCCCC(=O)Nc1cc(C)c(O)c(-c2nc3ncccc3o2)c1	104	10	98	107
COc1cccc(CNC(=O)Cn2ncn3cccc3c2=O)c1	105	x	104	97
CCOCCc1nn2c(=O)cc(COC(=O)Cc3ccccc3)nc2s1	99	x	71	87
Cc1[nH]nc(-n2cnnc2)c1NS(=O)(=O)c1cccc2nsnc12	103	-75	x	x
CC(=O)Nc1cccc(/C(C)=N/N=C2/NC(=O)C(CC(=O)Nc3ccc(Cl)cc3)S2)c1 (stereo unspecified)	99	-14	154	78
CCc1cccc(C)c1NC(=O)CCS(=O)(=O)c1cc(Br)cc2c1N(C(=O)C1CC1)CC2	105	-5	108	83
Cc1ccc2c(c1)c1c3n2CCN(S(C)(=O)=O)C3CCC1 (stereo unspecified)	98	10	100	102
CCN(CC1COc2ccccc2O1)C(=O)c1ccccc1Cl (stereo unspecified)	x	-7	104	91
COC(=O)C1=C(C)C(c2ccccc2OC)NC(=O)N1 (stereo unspecified)	101	-23	102	95
CCOC(=O)c1c(NC(=O)C2c3ccccc3Oc3ccccc32)sc(C)c1C	110	-18	108	89
CC(=O)Nc1ccc(NS(=O)(=O)c2cccc3c2C(=O)c2ccccc2C3=O)cc1	101	-123	x	x
CC1CCC(NC(=O)COc2ccccc2C(N)=O)CC1 (stereo unspecified)	x	0	107	87
CC(C)Cn1c(=O)c(=O)[nH]c2cc(-c3noc(-c4ccnn4C)n3)ccc21	102	-41	x	x
O=C(CCc1nc(-c2cccnc2)no1)NC1CCCCC1	106	-18	x	x
COc1ccc(C2CC(c3c(O)c4ccccc4oc3=O)=NCCN2Cc2cccc(C)c2)cc1 (stereo unspecified)	102	x	89	90
COc1ccc(C(=O)NC2CCCCCC2)c(OC)c1OC	x	3	116	96
Cc1ccc(C)c(N2CCN(C(=O)C3CCCN(S(=O)(=O)c4cccc5nonc45)C3)CC2)c1 (stereo unspecified)	114	-34	123	93
O=C(c1cc2c(s1)-c1ccccc1S(=O)(=O)C2)N1CCN(c2ccccn2)CC1	108	-120	x	x
Cc1ccc(Sc2cc(C)nc(-c3ccccn3)n2)cc1	101	-7	-1	-1
COC(=O)Nc1ccc2c(c1)C(=O)NC2=O	101	-57	87	76
COc1cccc(CNC(=O)CSc2nc3c(-c4ccccc4)csc3c(=O)n2C)c1OC	98	-11	x	x
O=C(Cc1ccccc1)NCC(c1cccs1)N1CCOCC1 (stereo unspecified)	x	-21	112	80
Cc1nc(-c2cccc(C(=O)N3CCN(C(c4ccccc4)c4ccccc4)CC3)c2)no1	97	-4	x	x
Cc1ccccc1Cn1c(-c2cccs2)nc2ccccc21	100	-9	106	88
O=C(Cn1c(=O)c2sccc2n(CC(=O)Nc2ccc(Cl)cc2Cl)c1=O)NCCc1ccccc1	107	-52	103	99
Cc1ccc(C(=O)ON2C(=O)c3ccccc3C2=O)cc1	100	-52	74	80
O=C(O)Cc1ccc(-n2cccc2)cc1	102	-12	103	57
CNC(=S)NCc1ccc(C(=O)OC)cc1	x	2	76	89
CN(C)CCNC(=O)C(=O)NCc1n[nH]c(=O)c2ccccc12	105	2	x	x
O=C1CCCC2=C1C(c1cccnc1)CC(=O)N2c1ccccc1C(F)(F)F (stereo unspecified)	x	2	95	90
O=c1[nH]c2ccccc2[nH]1	x	-29	91	89
Cc1c(Cc2ccc(F)cc2)c(=O)oc2cc(O)ccc12	99	-10	101	89
COc1ccccc1N(CC(=O)Nc1cc(C)cc(C)c1)S(C)(=O)=O	99	-4	101	85
c1ccc(C2C3=C(Nc4ncnn42)c2ccccc2CC3)cc1 (stereo unspecified)	x	-28	96	82
CON(C)S(=O)(=O)c1ccc(Br)c(C(=O)OCCCn2c(=O)[nH]c3ccccc32)c1	x	-2	105	70
C1COC(CNCC2CC2)C1 (stereo unspecified)	105	-28	110	86
CN(C)C(=S)SCC(=O)N1CCN(S(=O)(=O)c2ccc3ccccc3c2)CC1	x	-18	97	95

(further entries)
SMILES	GIV Gai3 FP	HCMV NEC inh	Sa growth inh	Sa growth inh second temp
Cn1c(=O)c2c(SCC(=O)NCc3ccco3)nc(-c3ccccc3Cl)nc2n(C)c1=O	99	x	75	83
Cn1nc2c3ccccc3n(Cc3ccc(F)cc3)c2nc1=S	108	-4	101	92
COc1ccc(OC)c(NC(=O)c2ccc(-n3nc(OCc4ccc(Cl)cc4)ccc3=O)cc2)c1	107	-33	x	x
O=S(=O)(NC1(C(F)(F)F)OCCO1)c1ccccc1	100	x	87	90
Cc1ccc2oc(=O)c3cc(C(=O)NCCN(C)C)sc3c2c1	108	-8	83	92
COc1cc2cc(CNc3ccccc3)c(=O)n(CC(=O)Nc3cccc(Cl)c3C)c2cc1OC	110	x	89	83
COc1ccccc1CNC(=O)c1ccc(N2CCCC2)c(NC(=O)Nc2cccc(Cl)c2)c1	104	-8	x	x
Cc1ccc(S(=O)(=O)N2C(=O)CCC2C(=O)NCc2ccco2)cc1 (stereo unspecified)	102	-18	92	77
Cc1ccc(C2OCC3(CO)COC(c4ccc(C)cc4)N23)cc1 (stereo unspecified)	100	-27	92	80
CC1(C)CC(CC(=O)O)(Cc2ccccc2)CCO1 (stereo unspecified)	103	7	131	106
COc1ccccc1NC(=O)CSc1oc(-c2ccccc2)nc1S(=O)(=O)c1ccc(C)cc1	103	17	106	95
Cc1csc(NC(=O)CN2C(=O)COc3cc(S(=O)(=O)N4CCC(C)CC4)ccc32)n1	105	x	105	100
CN1C(CC(=O)c2ccccc2)CCC[C@H]1CC(O)c1ccccc1 (stereo partly specified)	x	9	93	91
O=C1C=C(NCc2ccco2)CC(c2ccccc2)C1 (stereo unspecified)	107	x	92	80
O=C(O)CCc1ccc2ccccc2n1	x	-13	110	94
CN1CCN(c2nc(N3CCN(C4CCCCC4)CC3)nc3c2cnn3C)CC1	101	-8	x	x
CC1CCCC(C)N1C(=O)COc1ncnc2ccccc12 (stereo unspecified)	x	-35	102	83
COc1ccc(-c2nonc2NC(=O)C(C)Oc2ccc(C(C)(C)C)cc2)cc1OC (stereo unspecified)	105	-9	x	x
CCOC(=O)c1sc(C)c2c1NC(C)(c1ccccc1)NC2=O (stereo unspecified)	102	x	115	85
COc1ccc(N(C(=O)c2ccccc2C)S(=O)(=O)c2ccc(C)cc2)cc1	103	-35	107	82
Cc1ccc(-n2ccn3c(CCCC(=O)N4CCN(c5ccccn5)CC4)nnc3c2=O)cc1C	109	-8	x	x
Cc1ccc(C2CC(c3cccs3)=NN2C(=O)c2ccc(Br)o2)cc1 (stereo unspecified)	107	-26	x	x
CC(C)CC1NC(=O)N(c2ccccc2)C1=O (stereo unspecified)	x	-8	96	87
Cc1cccc(-n2c(C)nnc2SCC(=O)Nc2ccccc2C(=O)NC2CC2)c1	x	6	109	101
CCCCCC(=O)N(c1ccccc1)C1CC(C)N(C(=O)c2cccc(OC)c2)c2ccccc21 (stereo unspecified)	98	-2	x	x
COC(=O)c1ccccc1NC(=O)Cn1nc(C)n2cccc2c1=O	101	-28	84	82
CCc1nn(CC(=O)Nc2ccc(N(CC)CC)cc2C)c(=O)c2cc3sccc3n12	107	-4	108	80
COc1ccc(CCNC(=O)c2cnc3sc(N4CCOCC4)nn3c2=O)cc1	93	9	91	97
CCc1ccc(OCC(=O)NC(C)C)cc1	101	-14	106	69
N#C/C(N=Cc1cccs1)=C(\C#N)NCc1ccccc1Sc1ccc(Cl)cc1	105	4	97	87

A second format for 13 compounds above.
mol | GIV Gai3 FP | HCMV NEC inh | Sa growth inh | Sa growth inh second temp
COc1ccc(-c2nonc2NC(=O)C(C)Oc2ccc(C(C)(C)C)cc2)cc1OC (stereo unspecified) | 105 | -9 | x | x
CCOC(=O)c1sc(C)c2c1NC(C)(c1ccccc1)NC2=O (stereo unspecified) | 102 | x | 115 | 85
COc1ccc(N(C(=O)c2ccccc2C)S(=O)(=O)c2ccc(C)cc2)cc1 | 103 | -35 | 107 | 82
Cc1ccc(-n2ccn3c(CCCC(=O)N4CCN(c5ccccn5)CC4)nnc3c2=O)cc1C | 109 | -8 | x | x
Cc1ccc(C2CC(c3cccs3)=NN2C(=O)c2ccc(Br)o2)cc1 (stereo unspecified) | 107 | -26 | x | x
CC(C)CC1NC(=O)N(c2ccccc2)C1=O (stereo unspecified) | x | -8 | 96 | 87
Cc1cccc(-n2c(C)nnc2SCC(=O)Nc2ccccc2C(=O)NC2CC2)c1 | x | 6 | 109 | 101
CCCCCC(=O)N(c1ccccc1)C1CC(C)N(C(=O)c2cccc(OC)c2)c2ccccc21 (stereo unspecified) | 98 | -2 | x | x
COC(=O)c1ccccc1NC(=O)Cn1nc(C)n2cccc2c1=O | 101 | -28 | 84 | 82
CCc1nn(CC(=O)Nc2ccc(N(CC)CC)cc2C)c(=O)c2cc3sccc3n12 | 107 | -4 | 108 | 80
COc1ccc(CCNC(=O)c2cnc3sc(N4CCOCC4)nn3c2=O)cc1 | 93 | 9 | 91 | 97
CCc1ccc(OCC(=O)NC(C)C)cc1 | 101 | -14 | 106 | 69
N#C/C(N=Cc1cccs1)=C(\C#N)NCc1ccccc1Sc1ccc(Cl)cc1 | 105 | 4 | 97 | 87

(cont.)
SMILES	GIV Gai3 FP	HCMV NEC inh	Sa growth inh	Sa growth inh second temp
COc1ccc(-c2nc(-c3ccncc3)[nH]c(=O)n2)cc1	95	-6	109	91
Cc1ccc(NC(=O)c2c(C)oc3ccc(O)c(CN4CCCCC4)c23)c(C)c1	103	-2	107	74
O=C(C1CCCN(S(=O)(=O)c2cccc3cccnc23)C1)N1CCc2ccccc21 (stereo unspecified)	101	x	102	96
O=C(CC12CC3CC(CC(C3)C1)C2)n1cccn1	101	8	113	108
CC(C)C(Nc1n[nH]c(=O)[nH]c1=O)C(=O)O (stereo unspecified)	90	6	89	114
CC(NC(=O)c1ccc(Cl)cc1Cl)C(=O)NCc1cccnc1 (stereo unspecified)	100	35	102	96
CN(C)S(=O)(=O)c1ccc(SCc2cc3c(cc2Br)OCO3)nc1	x	-28	81	93
O=C(COC(=O)C(Cc1c[nH]c2ccccc12)NC(=O)C12CC3CC(CC(C3)C1)C2)c1ccccc1 (stereo unspecified)	100	-5	x	x
O=C(/C=C/c1cccc(Br)c1)N1CCCC1	x	-37	98	93
Cc1ccc(C(O)c2nccc3ccccc23)cc1 (stereo unspecified)	101	-48	94	91
O=C(CSc1n[nH]c(-c2ccccc2)n1)c1ccc(S(=O)(=O)N2CCCC2)cc1	x	17	89	94
CCSc1nnc2c(n1)OC(c1ccc(N(CC)CC)cc1)Nc1ccccc1-2 (stereo unspecified)	114	-57	x	x
COc1ccccc1OC(=O)/C=C/c1ccc(I)o1	x	-13	109	96
O=S(=O)(Cc1ccc2nonc2c1)c1cccs1	105	-14	105	101
O=C(CN1C(=O)S/C(=C/c2ccc(Br)cc2)C1=O)Nc1ccc(O)cc1	103	-19	x	x
CC(=O)NC1CCC(C)CC1 (stereo unspecified)	106	3	112	97
CCNc1c(NC(=O)c2ccccc2OCC)c(=O)oc2ccccc12	108	-8	99	89
Cc1noc(C)c1/C=C/C(=O)NNc1c(F)c(F)c(F)c(F)c1F	x	-18	82	93
COc1cc2c(cc1OC)C1CC(=NO)C(CC(C)C)CN1CC2 (stereo unspecified)	104	-7	129	97
CCc1cccc(NC(=O)c2sc3nc[nH]c(=O)c3c2C)c1	105	x	113	91
CCN(C(=N)N=C(N)N)c1ccccc1	102	6	110	102
O=C1c2ccccc2C(=O)N1CCCN1CCN(CCCN2C(=O)c3ccccc3C2=O)CC1	107	-4	100	97
O=C(NCc1ccco1)C1=COCCO1	x	-16	103	88
N#C/C(=C(/O)CSc1ncn[nH]1)c1nc2ccccc2[nH]1	x	-26	102	73
Cc1c(-c2cccc(NC(=O)c3ccc(F)c(F)c3)c2)nc2ncccn12	101	x	69	44

Compound activity (PubChem)
